Bioassay records as filed in PubChem BioAssay.
FGF22 binding: binders of human FGF22 protein, primary screen, FGF22 synaptogenesis inhibitor project, biophysical, thermal shift, single point. 1.5% of 340,000 active. Fibroblast growth factor 22 (Homo sapiens), Q9HCT0. recombinant FGF22 thermal shift, SYPRO orange fluorescence; percent of sucrose octasulfate shift, DMSO zero. calls only at 9.99 µM;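 active = melting point raised past a set limit in the mean and every replicate; three in four hits are not shown here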
Target sequence (Q9HCT0 whole entry, looked up): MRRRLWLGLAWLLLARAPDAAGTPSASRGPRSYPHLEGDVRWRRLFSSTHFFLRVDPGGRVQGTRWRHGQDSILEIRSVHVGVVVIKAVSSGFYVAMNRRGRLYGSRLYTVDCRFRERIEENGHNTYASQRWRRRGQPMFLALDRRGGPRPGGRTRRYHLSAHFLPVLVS
Ecoli rRNA inh: reduced GFP signal of wild-type E. coli, primary screen, bacterial rRNA inhibitor project, GFP/RFP fluorescence, OD600, single point | 1.6% of 350,000 active | E. coli WT GFP vs humanized-ribosome RFP mutants, 24 h; active compounds read low; DMSO median 0, no signal -100 | GFP signal change (wild-type ribosome), % (no concentration beside the values);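 active = significant combined selectivity score with lowered wild-type GFP, culture density cut under 30%, mutant RFP and density less affected; inactive = any of these conditions unmet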; note: one replicate is shown; some compounds called inactive have numbers as strong as hits
MLL AF4-AF9 inh: inhibitors of AF4 peptide binding to AF9, primary screen, biochemical, AlphaScreen, biotin-AF4 peptide, FLAG-AF9, single point; 0.47% of 350,000 active; inhibition, % at 10 µM; AID 651704, 2012; Protein AF-9 (Homo sapiens), P42568;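 active = every replicate reaching a set inhibition limit, whatever the replicate mean, cut at about 25% in these data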;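 note: 0% = plate neutral control median and 100% = total signal loss; the record names both 10 and 1 µM as test concentration; the first replicate is given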
Target sequence (P42568 whole entry, looked up): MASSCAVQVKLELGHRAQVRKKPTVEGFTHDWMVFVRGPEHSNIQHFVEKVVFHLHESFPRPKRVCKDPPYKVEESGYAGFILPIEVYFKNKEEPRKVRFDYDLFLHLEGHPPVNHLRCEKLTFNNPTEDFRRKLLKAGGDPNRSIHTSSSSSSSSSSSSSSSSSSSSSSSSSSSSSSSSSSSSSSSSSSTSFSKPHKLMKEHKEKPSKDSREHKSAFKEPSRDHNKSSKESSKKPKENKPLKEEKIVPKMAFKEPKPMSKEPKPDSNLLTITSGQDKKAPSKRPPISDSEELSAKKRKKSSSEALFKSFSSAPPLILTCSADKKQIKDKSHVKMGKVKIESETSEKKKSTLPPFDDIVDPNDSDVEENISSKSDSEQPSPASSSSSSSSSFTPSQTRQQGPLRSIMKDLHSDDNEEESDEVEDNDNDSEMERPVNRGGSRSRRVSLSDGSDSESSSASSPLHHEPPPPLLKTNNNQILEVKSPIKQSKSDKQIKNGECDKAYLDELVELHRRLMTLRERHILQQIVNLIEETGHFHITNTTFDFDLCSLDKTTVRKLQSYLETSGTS
Ecoli rRNA inh OD600: recorded beside Ecoli rRNA inh, whose call it bears; OD600 change, %; measured here: OD600 growth;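 optical density of the mix in the first replicate; 0 = DMSO median and -100 = no signal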
Ecoli rRNA inh RFP: second read-out of Ecoli rRNA inh, no call of its own (marks repeat the call); RFP signal change, %; measured here: RFP humanized mutant strains;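 first replicate; 0 = DMSO median and -100 = no signal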
* hit, by the source's call; i = inactive; & = joins results of further samples. This is a subset (hit frequency here may not be typical).

SMILES | FGF22 binding | Ecoli rRNA inh | Ecoli rRNA inh OD600 | Ecoli rRNA inh RFP | MLL AF4-AF9 inh
C[C@@H]1CN([C@@H](C)CO)C(=O)c2cc(NC(=O)CCN3CCOCC3)ccc2O[C@@H]1CN(C)S(=O)(=O)c1ccc(F)cc1 | i | 3 | 7 | -2.4 | -3.5
CO[C@H]1CN(C)C(=O)c2cc(NC(C)=O)ccc2OC[C@H](C)N(C(=O)c2ccccn2)C[C@@H]1C | i | 1 | 3 | -1.4 | -11
O=C(c1ccc2ccccc2c1)c1cccc(F)c1C(=O)O | i | -2 | 0 | -0.5 | -1.0
C[C@H]1CN([C@@H](C)CO)C(=O)c2cc(-c3cccc(C(=O)N(C)C)c3)cnc2O[C@H]1CN(C)S(=O)(=O)c1cccc(F)c1 | i | 1 | 8 | -2.1 | -4.9
CCCCNC(=O)C1(C)CCN1C(=O)c1cncc(Br)c1 (centres undefined) | i | 10 | 16 | 0.9 | -3.4
O=C(C1CCCCC1)N1CC2(C1)[C@@H](c1ccccc1)[C@@H](CO)N2Cc1ccc(Cl)cc1 | i | -38 | -62 | 28 | 3.1
C[C@@H]1CN([C@H](C)CO)C(=O)Cc2cc(NC(=O)Cc3ccccc3)ccc2O[C@H]1CN(C)Cc1ccc(Oc2ccccc2)cc1 | i | 0 | 0 | 2.7 | -1.5
CCc1nc2ccc(C(=O)NCCN(C)C)cn2c1N(CC)CCOC | i | 12 | 13 | -1.0 | -0.4
O=C(CN1CCOCC1)NCC[C@@H]1CC[C@H](NS(=O)(=O)c2ccc(Cl)cc2)[C@H](CO)O1 | i | -1 | 1 | -0.6 | 0.8
CCCC(=O)Nc1ccc2c(c1)OC[C@@H](C)N(C(=O)CC)C[C@@H](C)[C@H](OC)CN(C)C2=O | i | -2 | -5 | 1.3 | -1.6
COc1ccc(NC(=O)Nc2cccc3c2O[C@@H](CN(C)S(=O)(=O)c2cn(C)cn2)[C@H](C)CN([C@H](C)CO)C3=O)cc1 | i | 1 | -1 | -1.6 | -1.0
COC(=O)C1=CN(c2ccc(Oc3ccccc3)cc2)C(N)=C(C#N)C1c1ccccc1 (centres undefined) | i | -18 | -9 | -0.1 | -4.7

The final 2 compounds of the section above lead into the next.
SMILES | FGF22 binding | Ecoli rRNA inh | Ecoli rRNA inh OD600 | Ecoli rRNA inh RFP | MLL AF4-AF9 inh
COc1ccc(NC(=O)Nc2cccc3c2O[C@@H](CN(C)S(=O)(=O)c2cn(C)cn2)[C@H](C)CN([C@H](C)CO)C3=O)cc1 | i | 1 | -1 | -1.6 | -1.0
COC(=O)C1=CN(c2ccc(Oc3ccccc3)cc2)C(N)=C(C#N)C1c1ccccc1 (centres undefined) | i | -18 | -9 | -0.1 | -4.7
C[C@@H]1CN([C@@H](C)CO)C(=O)Cc2cc(NC(=O)Nc3ccc(F)cc3)ccc2O[C@@H]1CN(C)Cc1ccc2c(c1)OCO2 | i | -42 | -71 | -3.0 | -1.3
COc1ccc(-c2cc(CNc3nc4cc(-c5ccccc5C)sc4c(=O)n3C)on2)cc1 | i | 3 | 24 | 14 | -0.8
OC(c1ccc(Cl)c(F)c1)c1ncc(-c2cccc(C(F)(F)F)c2)[nH]1 (centres undefined) | i | -53 | -79 | -22 | 9.2
C[C@H]1CN([C@@H](C)CO)C(=O)c2ccccc2-c2ccccc2CO[C@@H]1CN(C)C(=O)Nc1ccc(-c2ccccc2)cc1 | i | 1 | -1 | -1.4 | 5.8
CCCNC(=O)C[C@@H]1CC[C@@H]2[C@H](COC[C@@H](O)CN2C(=O)c2cc(Cl)cc(Cl)c2)O1 | i | 5 | 8 | -1.8 | -2.7
CCCC#Cc1ccc2c(c1)O[C@H](CN(C)S(=O)(=O)c1cccc(OC)c1)[C@H](C)CN([C@H](C)CO)S2(=O)=O | i | 7&2 | -7&-8 | -0.5&-1.0 | 1.7&-1.3&1.1
CCCNC(=O)N1[C@@H](C#N)[C@H](c2ccc(-c3ccc(C(=O)N(C)C)cc3)cc2)[C@@H]1CO | i | 4 | 12 | -4.0 | 1.4
CC(C)NC(=O)Nc1ccc2c(c1)C(=O)N([C@@H](C)CO)C[C@@H](C)[C@H](CN(C)C(=O)c1ccccc1)OCCCC[C@@H](C)O2 | i | 1 | -1 | -3.0 | 1.8
Nc1c(Br)cc(Br)c2c1-c1ccc([N+](=O)[O-])cc1C2 | i | -12 | 13 | -0.9 | 0.3
Cc1ccc(S(=O)(=O)Nc2ccc3c(c2)CC(=O)N([C@@H](C)CO)C[C@@H](C)[C@@H](CN(C)S(=O)(=O)c2cccs2)O3)cc1 | i | -2 | -6 | -0.6 | -12
C[C@@H]1CN([C@H](C)CO)C(=O)Cc2cc(NS(=O)(=O)c3cccs3)ccc2O[C@@H]1CN(C)S(=O)(=O)c1cn(C)cn1 | i | 2 | 4 | -2.9 | -19
C[C@@H]1CN([C@@H](C)CO)C(=O)Cc2cc(NC(=O)Nc3cccc4ccccc34)ccc2O[C@@H]1CN(C)C(=O)NC1CCCCC1 | i | -5 | 2 | 1.0 | -25
O=Cc1ccc([B-](F)(F)F)s1 | i | 16 | 15 | -0.3 | -6.9
C[C@@H]1CN([C@@H](C)CO)S(=O)(=O)c2ccc(C#Cc3ccccc3)cc2O[C@H]1CN(C)C(=O)CN(C)C | i | -2 | -2 | 4.0 | 10
Cc1ccc(S(=O)(=O)N2C[C@H]3C(=O)C[C@@H](c4ccccc4)N(S(=O)(=O)c4cccc(C)c4)[C@H]3C[C@H]2c2ccccc2)cc1 | i | 6 | 13 | 5.7 | 1.2
CC(=O)N(C)C[C@@H]1Oc2cc(C#CC3(O)CCCC3)ccc2S(=O)(=O)N([C@H](C)CO)C[C@H]1C | i | 0 | -2 | 1.5 | -2.3
N#C[C@H]1[C@@H](c2ccc(-c3cccnc3)cc2)[C@@H](CO)N1C(=O)Nc1ccc(F)cc1 | i | -4 | -18 | -7.7 | -4.8
CC(C)C#Cc1cnc2c(c1)C(=O)N([C@@H](C)CO)C[C@@H](C)[C@@H](CN(C)C(=O)CCN1CCCCC1)O2 | i | 3 | 18 | 0.3 | 0.1
CN1C(=O)c2cc(NS(=O)(=O)c3ccccc3Cl)ccc2OC[C@H]2O[C@H](CC(=O)O)CC[C@@H]21 | i | 1 | 3 | -1.5 | -0.5
CC(C)NC(=O)Nc1ccc2c(c1)C(=O)N([C@@H](C)CO)C[C@H](C)[C@H](CN(C)S(=O)(=O)c1cn(C)cn1)OCCCC[C@@H](C)O2 | i | 7 | 6 | -0.7 | -1.5
COCC#Cc1ccc([C@@H]2[C@H](CO)N3CCCCN(C(=O)Nc4cc(F)ccc4F)C[C@@H]23)cc1 | i | -3 | -2 | 0.5 | 1.1
C[C@@H]1CN([C@H](C)CO)C(=O)c2cccc(NC(=O)Nc3ccc(F)cc3)c2O[C@H]1CN(C)Cc1ccc(Oc2ccccc2)cc1 | i | -2 | -4 | 7.7 | 4.0
CC(=O)NC(c1cccc(F)c1)c1nc(-c2cccc(F)c2)cs1 (centres undefined) | i | 5 | 5 | -3.1 | -0.2
CCCC(=O)Nc1ccc2c(c1)C(=O)N(C)C[C@H](OC)[C@H](C)CN(CCC)[C@@H](C)CO2 | i | 4 | 3 | -0.6 | -0.8
C[C@@H]1CCCCO[C@H](CN(C)Cc2ccc(C(=O)O)cc2)[C@H](C)CN([C@@H](C)CO)C(=O)c2cc(NS(C)(=O)=O)ccc2O1 | i | 4 | 5 | 0.7 | -1.5
O=C1NC[C@H](Cc2ccc(O)cc2)N(C[C@@H]2CCCN2C[C@H](Cc2ccccc2)N2C[C@H](Cc3ccc(O)cc3)N(CC3CCCCCC3)C(=O)C2=O)C1=O | i | -3 | -9 | 7.8 | 1.6
COCC(=O)N1[C@H](CO)[C@H]2c3ccccc3N(C(=O)Nc3ccccc3F)C[C@H]21 | i | 5 | 7 | -0.4 | -7.5
C[C@H]1CN([C@@H](C)CO)C(=O)c2cc(-c3cccc(C(=O)N(C)C)c3)cnc2O[C@@H]1CN(C)S(=O)(=O)c1ccccc1 | i | -15 | -4 | -2.7 | -0.7
C[C@@H]1CN([C@H](C)CO)C(=O)c2cc(NC(=O)Nc3ccc4c(c3)OCO4)ccc2O[C@@H]1CN(C)Cc1ccc(C(=O)O)cc1 | i | -2 | -2 | -1.4 | -2.3
CCCN(C)C[C@H]1Oc2cc(C#CCOC)ccc2S(=O)(=O)N([C@@H](C)CO)C[C@H]1C | i | 2 | 2 | -2.4 | 1.8
O=C(N[C@@H]1C=C[C@@H](CC(=O)N2CCc3ccccc3C2)O[C@H]1CO)C1CCC1 | i | -3 | 2 | -2.0 | -6.5
Cc1ccc(CC2(OCCN(C)C)CCC(C(C)(C)C)CC2)cc1 (centres undefined) | i | -61 | -80 | -19 | 16
c1ccc(CNCc2ccc(CNCc3ccccc3)cc2)cc1 | i | 6 | 5 | -2.5 | -0.6
Cc1cccc(S(=O)(=O)N2C[C@H](O)COC[C@H]3O[C@H](CC(=O)NCCCN4CCOCC4)CC[C@@H]32)c1 | i | 4 | 1 | -4.2 | -0.9
CCCNC(=O)N1C[C@H](C)[C@@H](OC)CN(C)C(=O)c2ccc(NC(=O)CC)cc2OC[C@H]1C | i | -2 | -2 | -1.8 | -2.8
C[C@H]1CN([C@@H](C)CO)C(=O)c2cc(C#Cc3cccc(F)c3)cnc2O[C@@H]1CN(C)C(=O)C1CCCCC1 | i | -5 | -20 | 8.2 | 3.8
Cc1noc(C)c1NC(=O)Nc1ccc2c(c1)CC(=O)N([C@@H](C)CO)C[C@@H](C)[C@@H](CN(C)S(=O)(=O)c1ccc(F)cc1)O2 | i | 5 | 0 | 1.8 | -1.8
Cc1noc(C)c1S(=O)(=O)Nc1cccc2c1O[C@H](CN(C)C(=O)Nc1ccc3c(c1)OCO3)[C@H](C)CN([C@@H](C)CO)C2=O | i | -2 | -6 | 2.5 | 0.5
Cc1noc(C)c1NC(=O)N(C)C[C@@H]1Oc2c(NC(=O)C3CCOCC3)cccc2C(=O)N([C@@H](C)CO)C[C@H]1C | i | -2 | -1 | -1.5 | -3.0
CC(C)CC#Cc1ccc2c(c1)O[C@H](CN(C)C(=O)CN(C)C)[C@@H](C)CN([C@@H](C)CO)S2(=O)=O | i | 0 | 2 | 0.1 | 0.2
C[C@H]1CN([C@@H](C)CO)C(=O)CCCn2cc(nn2)CO[C@@H]1CN(C)C(=O)NC1CCCC1 | i | 1 | -4 | 1.0 | 0.0
C[C@H](CO)N1C[C@H](C)[C@@H](CN(C)S(=O)(=O)c2ccc(Cl)cc2)OCCCC[C@H](C)Oc2ccc(NS(=O)(=O)c3ccc(F)cc3)cc2C1=O | i | -2 | 3 | 2.2 | -3.4
C[C@H]1CN([C@@H](C)CO)C(=O)c2cc(C#CCc3ccccc3)cnc2O[C@@H]1CN(C)C(=O)C1CC1 | i | 0 | -2 | -1.5 | -5.7
COCC(=O)N(C)C[C@@H]1Oc2ncc(C#C[C@@H](C)O)cc2C(=O)N([C@@H](C)CO)C[C@H]1C | i | 6 | 0 | -0.2 | -2.3
O=C(Nc1ccccc1)N1CCCCN2[C@H](CO)[C@H](c3ccc(C#Cc4cccnc4)cc3)[C@@H]2C1 | i | -3 | -5 | 0.2 | -6.2
C[C@@H]1CN([C@@H](C)CO)C(=O)c2cccc(NC(=O)Nc3ccccc3)c2O[C@@H]1CN(C)CC1CCCCC1 | i | 3 | 0 | 1.1 | 0.1
CNC[C@H]1Oc2ccc(N(C)C)cc2CC(=O)N([C@@H](C)CO)C[C@@H]1C | i | 2 | 3 | -0.6 | -7.1
C[C@H](CO)N1C[C@H](C)[C@H](CN(C)C(=O)NC2CCCCC2)Oc2c(NS(=O)(=O)c3ccccc3)cccc2C1=O | i | -2 | 3 | 1.0 | -1.3
COCC(=O)NC[C@@H]1[C@@H](c2ccccc2)[C@H](CO)N1C(C)=O | i | 4 | 13 | -1.5 | -1.0
CN(C)CC(=O)N[C@@H]1CC[C@H](CCNC(=O)C2CCC2)O[C@H]1CO | i | 1 | 10 | -1.9 | -2.7
COc1ccc(S(=O)(=O)Nc2ccc3c(c2)CC(=O)N([C@H](C)CO)C[C@@H](C)[C@@H](CN(C)Cc2ccncc2)O3)cc1 | i | 1 | -6 | -1.5 | -0.8

Four entries from above, ordered by molecular weight, highest first:
SMILES | FGF22 binding | Ecoli rRNA inh | Ecoli rRNA inh OD600 | Ecoli rRNA inh RFP | MLL AF4-AF9 inh
Cc1noc(C)c1NC(=O)Nc1ccc2c(c1)CC(=O)N([C@@H](C)CO)C[C@@H](C)[C@@H](CN(C)S(=O)(=O)c1ccc(F)cc1)O2 | i | 5 | 0 | 1.8 | -1.8
CC(=O)N(C)C[C@@H]1Oc2cc(C#CC3(O)CCCC3)ccc2S(=O)(=O)N([C@H](C)CO)C[C@H]1C | i | 0 | -2 | 1.5 | -2.3
OC(c1ccc(Cl)c(F)c1)c1ncc(-c2cccc(C(F)(F)F)c2)[nH]1 (centres undefined) | i | -53 | -79 | -22 | 9.2
Cc1ccc(CC2(OCCN(C)C)CCC(C(C)(C)C)CC2)cc1 (centres undefined) | i | -61 | -80 | -19 | 16
